# Vaccinia mCherry: inhibitors of vaccinia virus infection (mCherry reporter signal) | 310,000 tested, 0.63% active | Potency, µM (titrated, usually from 36.5 µM), for the others: at the highest dose activity change, negative = inhibition, actives largely listed as inhibitors | AID 720579 | Vaccinia virus mCherry reporter infection, fluorescence; about a quarter of the inactives have no number; active = well fitted inhibition curve with a large enough effect; inconclusive = small, poorly fitted or top-dose-only effect; inactive = no such curve, though single readings can be large or run the other way; tested in A549 cells; further: nearly all actives have a fitted effect of over 35% in size; inactives centre near -10
# VACV Venus inh: inhibitors of vaccinia virus (Venus reporter). Potency, µM (highest dose often 36.5 µM), for the others: at the highest dose activity change, negative = inhibition, actives largely listed as inhibitors. AID 720580. 330,000 tested, 0.46% active. Vaccinia virus Venus reporter expression, fluorescence; active means well fitted inhibition curve with a large enough effect; inconclusive means small, poorly fitted or top-dose-only effect; inactive means no such curve, though single readings can be large or run the other way; tested in A549 cells; further: nearly all actives have a fitted effect of over 30% in size; inactives centre near -10
# Active calls of the source: *; i = inactive; ? = inconclusive; . = not tested or not shown; & = joins results of further samples; [ ] = remark or other dose. On the % scale 0 is the no-effect control and ±100 the full control effect; potency means the concentration at half of the fitted maximal effect.
# Values run as follows: Vaccinia mCherry	VACV Venus inh
Cc1cc(=O)[nH]c2c1c(C)nn2C1CCOC(C)(C)C1 (stereo not given)
 : -11%	-18%
CCC1CCCCN1C(=O)c1nn2cccnc2c1Cl (stereo not given)
 : .	-21%
CCOC(=O)C1CCN(C(=O)CNC(=O)Cn2c(C)cc3ccccc3c2=O)CC1
 : -8%	3%
CCC1(O)CC(c2ccccc2)=NN1C(=O)c1ccccc1F (stereo not given)
 : -14%	-13%
COc1cc2c(cc1OC)-c1cc(N3CCCCCC3)nc(=O)n1CC2
 : -27%	-15%
CN(CCc1ccccc1)C(=O)c1ccc(NC(=O)Cc2ccc(NC(=O)C3CCCN(C(=O)C4CCCC4)C3)cc2)cc1 (stereo not given)
 : ?	?
O=S(=O)(c1ccc(C(F)(F)F)cc1)N1CCN(c2nc(-c3cccs3)nc3ccccc23)CC1
 : i	-11%
O=C(NC12CC3CC(CC(C3)C1)C2)c1cc2nc(-c3ccco3)cc(C(F)(F)F)n2n1
 : .	17%
CCCc1cc(NCc2ccccn2)n2c(nc3ccccc32)c1C#N
 : -12%	6%
Cc1csc(NC(=O)C2CCN(S(=O)(=O)c3ccc4c(c3)oc(=O)n4C)CC2)n1
 : -14%	-17%
CCc1nc2oc3ccccc3c(=O)c2c(=O)n1-c1ccc(C)cc1
 : 7%	18%
O=C(Oc1c(-c2ccccc2)c(=O)n2c3c(cccc13)CC2)c1cccc([N+](=O)[O-])c1
 : -2%	-18%
COc1ccccc1/C=C/c1nc(C#N)c(NC2CCCCC2)o1
 : -6%	-9%
CCc1ccc(-c2nn(-c3ccccc3C)cc2C(=O)N2CCN(C3CCS(=O)(=O)C3)CC2)cc1 (stereo not given)
 : -7%	-2%
COc1ccc(-c2cc(C(F)(F)F)n3nc(C(=O)N4CCCC4)cc3n2)cc1
 : .	-22%
COc1ccc(CNC(=O)C2CCN(S(=O)(=O)c3ccc4nc5c(c(C(=O)O)c4c3)CC(C)CC5)CC2)cc1 (stereo not given)
 : -6%[7.34 µM]	-3%[7.34 µM]
C=CCn1c(SCC(N)=O)nc2sc3c(c2c1=O)CCC3
 : -19%	-21%
COc1ccc(C(CC(=O)c2ccc3c(c2)OCO3)c2c(O)c3ccccc3oc2=O)cc1OC (stereo not given)
 : i	-14%
CC(C)C(=O)N1CCN(c2ccc(NC(=O)c3cccs3)cc2)CC1
 : i	-16%
Cc1cccc(-n2ncc3c(N4CCCC4)ncnc32)c1
 : -18%	-8%
COc1cc(C2C(C#N)=C(N)OC3=C2C(=O)CC(C)(C)C3)cc2c1OCO2 (stereo not given)
 : -14%	-19%
CC(C)(C)c1ccc(C(=O)Nc2cccc([N+](=O)[O-])c2)cc1
 : ?	?
O=C(c1nc2ccc(Cl)cn2c1CN1CCCC(CO)C1)N1CCc2ccccc2C1 (stereo not given)
 : -13%	-9%
C/C=C\C(=O)Nc1cccc(C2=NOC3(C2)C[C@H](C(N)=O)N(C(=O)[C@H]2CCC(=O)N2)C3)c1 (stereo not given in full)
 : i	-2%
Cc1sc2nc(SCC(=O)N3CCCCC3)[nH]c(=O)c2c1C
 : -9%	-14%
C=CCn1c(O)c(N=NC(=O)CNC(=O)c2cccs2)c2ccccc21
 : -14%	-13%
CC(C)OC(=O)CSc1nnc(-c2ccccn2)n1N
 : -9%	-6%
O=c1cn[nH]c2ccccc12
 : -20%	-9%
O=C(NCc1ccccn1)c1ccc(NS(=O)(=O)c2ccccc2)cc1
 : -10%	-2%
CCOc1ccc(N(CC(=O)NCCSCc2ccco2)S(=O)(=O)c2ccc(C)cc2)cc1
 : -20%	-9%

# Profiles from above:
# O=C(NC12CC3CC(CC(C3)C1)C2)c1cc2nc(-c3ccco3)cc(C(F)(F)F)n2n1 in the list: Vaccinia mCherry = .; VACV Venus inh = 17%
# CC(C)OC(=O)CSc1nnc(-c2ccccn2)n1N in the list: Vaccinia mCherry = -9%; VACV Venus inh = -6%

# (list continues)
# Values run as follows: Vaccinia mCherry	VACV Venus inh
O=C(CSC1CCCCC1)N1CCN(c2ccccc2)CC1
 : -8%	-13%
O=C(NC1CCCC1)c1ccc(S(=O)(=O)N2CCCC2)cc1
 : -15%	-9%
COc1cccc(/C=C2\CCc3ccccc3C2=O)c1
 : i	-14%
Cc1cc(C(=O)N/N=C/c2cc([N+](=O)[O-])ccc2O)c2ccccc2n1
 : -6%	-16%
CC(C)n1c(=O)c(C=Nc2ccc(Br)cc2)c(O)n(Cc2ccco2)c1=O
 : i	-18%
Cn1nc(C(=O)OCC(=O)Nc2ccc(S(N)(=O)=O)cc2)c2ccccc2c1=O
 : 0%[7.34 µM]	-1%[7.34 µM]
COc1ccc(Nc2c(-c3cc4ccccc4o3)nc3nc(C)cc(C)n23)cc1
 : -10%	-15%
CCOC(=O)c1ccc(CN(Cc2ccc(F)cc2)S(=O)(=O)c2cc(C(=O)Nc3ccccc3CC)ccc2F)cc1
 : -15%	-10%
CC(=O)NC(c1ccccc1)c1nc(-c2cc(F)cc(F)c2)cs1 (stereo not given)
 : 2%	-1%
COc1cccc(-c2cnc(C(O)c3ccc(Cl)c(F)c3)[nH]2)c1 (stereo not given)
 : i	2%
COc1cc(C(c2nnnn2C(C)(C)C)N2CCN(C)CC2)cc(OC)c1OC (stereo not given)
 : .	-10%
O=C(Nc1cccc(O)c1)c1ccc2c(c1)C(=O)N(Cc1ccco1)C2=O
 : -8%	-12%
COc1ccc(Sc2ccc(-c3nc4cnccn4c3NC3CCCCC3)cc2OC)cc1
 : ?	11µM*
O=C(Oc1ccc(/C=N/NC(=O)c2ccccn2)cc1)c1cccc(F)c1
 : -1%	0%
O=C(N/N=C/c1ccc(Cl)cc1)c1ccc2nc[nH]c2c1
 : ?	-10%
NC(=O)NC(CC(=O)NCc1ccc2c(c1)OCO2)c1ccccc1Cl (stereo not given)
 : -12%	3%
COc1cccc(C2CCN(C)C2)c1 (stereo not given)
 : -1%	-8%
O=C(N/N=C/c1cccnc1)C12CC3CC(CC(C3)C1)C2
 : i	-14%
CC(C)CN(CC(C)C)C(=S)NC1CCCCC1
 : -8%	2%
C=C[C@]1(C)C[C@@H](OC(=O)CSCCN(CC)CC)[C@]2(C)C(C)CC[C@]3(CCC(=O)[C@H]32)[C@@H](C)[C@@H]1O (stereo not given in full)
 : -2%&-24%	-11%&-14%
CN(C)S(=O)(=O)c1ccc(C(=O)NN2C(=O)NC3(CCCCC3)C2=O)cc1
 : -4%	?
Cc1ccc(C)c(NC(=O)Cn2nnc(C(=O)NCc3ccccc3Cl)c2N)c1
 : -9%	-3%
Cc1ccc(CSc2nc3ncccc3[nH]2)cc1
 : .	-16%
Cc1cc(Br)cc2c(C(=O)NCC3CCCO3)cc(-c3cccs3)nc12 (stereo not given)
 : -15%	-15%
COc1ccc(C(=O)NNC(=O)CSc2ccccc2)cc1
 : -12%	3%
COc1ccc(OCC(=O)Nc2nnc(-c3ccco3)s2)cc1
 : -15%	-4%
Cc1ccc(NC(=S)NC(=O)c2ccccc2)cc1NC(=S)NC(=O)c1ccccc1
 : -23%	?
Cc1cc(C)c2c(N)c(C(=O)N/N=C/c3cccs3)sc2n1
 : -15%	-23%
CCN(CC)S(=O)(=O)c1cc(NC(=O)Cc2n[nH]c(=O)c3ccccc23)ccc1C
 : ?	-4%
CC(O)C(NS(=O)(=O)c1ccc(Cl)cc1)C(=O)OCC(=O)N1CCN(c2ccccc2)CC1 (stereo not given)
 : -26%	-21%
Cc1ccc(-c2nc(N)n(C(=O)c3ccco3)n2)cc1
 : -12%	-3%
C/C=C1\NC(=O)[C@H](C)NC(=O)[C@@H](NC(=O)[C@H](Cc2ccc(O)cc2)NC(=O)[C@@H](NC(=O)/C(C)=C/C)C(C)C)[C@@H](C)OC(=O)[C@H](CC(C)C)NC(=O)[C@@H](CCC(=O)O)NC1=O
 : 16%	-6%
CC(C)(C)OC(=O)CNC(=O)c1[nH]cnc1C(=O)Nc1ccc(CNC(=O)OC(C)(C)C)cc1
 : ?	?
Cc1cccc(NC(=O)NCc2ccc3c(c2)OCO3)c1C
 : i	3%
CCCCCCCCCCOC(=O)Cn1c(COc2ccccc2)[n+](C)c2ccccc21
 : ?	11µM*
Cc1cccc(NC(=O)Nc2cccc(F)c2)n1
 : .	?
CCCCc1nnc(NC(=O)CC(=O)Nc2ccccc2C(=O)O)s1
 : .	-21%
CC(C)c1ccc(-c2c(C#N)c(N)nc3c2CCCCC3)cc1
 : .	-6%
Cc1cc(-c2cn3ccccc3n2)c(C)n1-c1ccccc1
 : 2%	5%
CC1(C)CC(=O)C2=C(C1)OC(N)=C(C#N)C21C(=O)N2CCCc3cccc1c32 (stereo not given)
 : -11%	-6%
CCCCCOC(=O)C1=C(C)NC(=O)NC1c1ccc2c(c1)OCO2 (stereo not given)
 : -7%	-14%
COCCn1cc(C(=O)N2CCN(C)CC2)c2c3ccccc3n(C)c2c1=O
 : i	-9%
O=c1c2ccccc2ncn1-c1ccc(Cl)cc1
 : -13%	1%
O=c1n(Cc2ccccc2)c(O)c2n1Cc1ccccc1N=C2c1ccc(C(F)(F)F)cc1
 : i	-15%
Cn1cnc(S(=O)(=O)N2CCC(C(=O)NCc3ccccc3Cl)CC2)c1
 : -10%	2%
COc1ccc(-n2c(COc3cccc4cccnc34)nnc2SCC(=O)O)cc1
 : i	-9%
O=C(O)C1CSC(c2cccnc2)N1 (stereo not given)
 : .	-27%
N#Cc1ccccc1CSc1nnc2ccc3ccccc3n12
 : -16%	-16%
O=C(Oc1cccc(C(=S)N2CCOCC2)c1)c1cccc([N+](=O)[O-])c1
 : -5%	-3%
COC(=O)c1ccccc1NC(=O)CSc1nc(N)cc(N)n1
 : i	-13%
CN(C)S(=O)(=O)c1cccc(C(=O)NCCCn2ccnc2)c1
 : -7%	-4%
CCOc1ccccc1OCC(=O)Nc1ccc(S(=O)(=O)Nc2ncccn2)cc1
 : -11%	-15%
CC(=O)c1ccc2noc(-c3cccc(C)c3)c2c1
 : i	-1%
Cc1cccc(-c2cc(C(=O)Nc3ccncc3)c3ccccc3n2)c1
 : -6%	-6%
Cc1ccc2[nH]c3nc(SCC#N)nnc3c2c1
 : i	-11%
COc1cccc(CNC(=O)CSc2c3c(nc4ccc(Cl)cc24)CCCC3)c1OC
 : -13%	-12%
C#CCn1c(=NC(=O)CN2C(=O)CCC2=O)sc2cccc(C)c21
 : -2%	-27%
O=C(CC(=O)NCc1ccccc1)NCc1ccccc1
 : i	-4%
CNC(=S)N1CCC(NC(=O)C(Cc2ccccc2)NC(C)=O)CC1 (stereo not given)
 : i	7%
COc1ccccc1-c1nnc(SCC(=O)c2ccc(Cl)cc2)n1-c1ccccc1
 : -25%	-20%

# By substructure: the entries above with a cyano group
# Values run as follows: Vaccinia mCherry	VACV Venus inh
CCCc1cc(NCc2ccccn2)n2c(nc3ccccc32)c1C#N
 : -12%	6%
COc1ccccc1/C=C/c1nc(C#N)c(NC2CCCCC2)o1
 : -6%	-9%
COc1cc(C2C(C#N)=C(N)OC3=C2C(=O)CC(C)(C)C3)cc2c1OCO2 (stereo not given)
 : -14%	-19%
CC(C)c1ccc(-c2c(C#N)c(N)nc3c2CCCCC3)cc1
 : .	-6%
CC1(C)CC(=O)C2=C(C1)OC(N)=C(C#N)C21C(=O)N2CCCc3cccc1c32 (stereo not given)
 : -11%	-6%
N#Cc1ccccc1CSc1nnc2ccc3ccccc3n12
 : -16%	-16%
Cc1ccc2[nH]c3nc(SCC#N)nnc3c2c1
 : i	-11%

# The list continues.
# Values run as follows: Vaccinia mCherry	VACV Venus inh
Cc1ccc2[nH]c(=O)c3cc(C(=O)NCc4cccc(Cl)c4)sc3c2c1
 : -4%	-27%
C=CCN(C(=O)c1ccc2c(c1)nnn2C)c1ccccc1
 : i	0%
COc1cc(CNn2c(C)n[nH]c2=S)cc(Cl)c1OCc1ccccc1
 : -13%	-18%
COC(=O)c1c(NC(=O)CCCOc2ccc(C)cc2)sc2c1CCCC2
 : -8%	-6%
O=C(C1=C(O)C(=O)N(CC2CCCO2)C1c1ccc(Cl)cc1)c1ccco1 (stereo not given)
 : 3%	3%
N/C(=N\OC(=O)c1ccco1)c1ccc(Br)cc1
 : -3%	-4%
O=C(NC(=S)Nc1cccc(Cl)c1N1CCCCC1)c1ccco1
 : ?	-26%
CCc1ccc(-n2nc3ccc(NC(=O)c4cc5ccccc5o4)cc3n2)cc1
 : 0%	14%
COc1ccc(-c2cc3nc(C)c(CCC(=O)NC4CCCCC4)c(C)n3n2)c(OC)c1
 : -3%	4%
O=C(CN1CCN(c2cccc(Cl)c2)CC1)N1CCCC1
 : 3%	6%
O=C(NNS(=O)(=O)c1ccc([N+](=O)[O-])cc1)C1CCCCC1
 : i	-10%
O=C1Cc2ccccc2C(=O)N1c1ccccc1
 : -1%	4%
COc1ccc(C2=NN(C(=O)c3ccccc3C(=O)O)C(c3ccccc3O)C2)cc1 (stereo not given)
 : -21%	-3%
Cc1ccc2[nH]c(=O)c(CN(CC3CCCO3)C(=O)c3cccs3)cc2c1 (stereo not given)
 : i	-11%
Nn1cnnc1N/N=C/c1cc(Br)cc(Br)c1O
 : 8.9µM*	?

# High-throughput results as filed in PubChem BioAssay.
